Screening data: PubChem BioAssay, several laboratories
LANA-H2A inh = blocks KSHV LANA binding to histone H2A/H2B; Q9QR71; cell-free LANA-H2A/H2B peptide, fluorescence polarization; inhibition, % (test concentration not listed); hit rate 0.6% among 320,000; AID 2629; in the data active = inhibition mostly above about 10%, no sharp cut-off; inactive = mostly below about 6.7%;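 note: stock transfer was 7.5 nL into about 10 µL; 0% = median of vehicle wells and 100% = median of positive control wells; one replicate is shown; the record names a cut of 25% in any replicate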
RanGTP-Imp inh = disruptors of Ran-importin-beta complex formation – biochemical, FRET, CFP-Ran, YFP-importin-beta, homogeneous, primary screen. inhibition, % (no concentration beside the values). hit rate 1.1% among 300,000. AID 2216. cell-free CFP-Ran/YFP-importin-beta FRET ratio;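 active = most replicates above 15%; inconclusive = exactly half above 15%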;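 note: 0% = DMSO wells and 100% = Ran loaded with GDP instead of GTP; wells of about 40 µL received 100 nL stock; the first replicate is given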
Beta apoptosis = blocks beta cell apoptosis. protection from apoptosis, % (test concentration not listed). INS-1E cytokine-induced death, ATP luminescence, 48 h; percent of positive-control rescue, neutral wells zero. hit rate 0.8% among 300,000. AID 435005;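 active = all replicates at 75% or more, or half of them and the mean; inconclusive = half reach 75% but not the mean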;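 note: 0% = cytokine-treated negative control wells and 100% = positive control rescue; higher means more ATP so stronger rescue from cytokine killing; wells of about 40 µL received 100 nL stock; the first replicate is given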
Vif TR-FRET = HIV-1 Vif–A3G interaction blockers – biochemical, TR-FRET, GST-Vif 1-94, biotin-A3G peptide, dose response retest, primary screen (AID 1117319); TR-FRET GST-Vif / biotin-A3G peptide binding; higher % means a stronger effect; test concentration not given here; strong numbers were not always called active; inhibition, %; hits with a dose series show IC50 in µM; hit rate 0.57% among 260,000;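 active = above the screen mean plus three standard deviations and confirmed in dose response; inconclusive = results disagree or hit not tested in dose response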;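 note: Vif residues 1-94 fused to GST binding biotinylated APOBEC3G peptide 110-148; 0% = full assay without inhibitor and 100% = GST in place of GST-Vif; retest series ran down from 100 µM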
AF4-AF9 inh = blocks AF4 peptide binding to human AF9 | P42568 | AlphaScreen, biotin-AF4 peptide binding to FLAG-AF9 | inhibition, % at 10 µM | hit rate 0.47% among 350,000 | AID 651704;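 active = every replicate reaching a set inhibition limit, whatever the replicate mean, cut at about 25% in these data; inconclusive = mean inhibition reaches that limit but some replicates miss it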;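 note: 0% = plate neutral control median and 100% = total signal loss; the record names both 10 and 1 µM as test concentration; the first replicate is given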
Target sequence (P42568 whole entry, looked up): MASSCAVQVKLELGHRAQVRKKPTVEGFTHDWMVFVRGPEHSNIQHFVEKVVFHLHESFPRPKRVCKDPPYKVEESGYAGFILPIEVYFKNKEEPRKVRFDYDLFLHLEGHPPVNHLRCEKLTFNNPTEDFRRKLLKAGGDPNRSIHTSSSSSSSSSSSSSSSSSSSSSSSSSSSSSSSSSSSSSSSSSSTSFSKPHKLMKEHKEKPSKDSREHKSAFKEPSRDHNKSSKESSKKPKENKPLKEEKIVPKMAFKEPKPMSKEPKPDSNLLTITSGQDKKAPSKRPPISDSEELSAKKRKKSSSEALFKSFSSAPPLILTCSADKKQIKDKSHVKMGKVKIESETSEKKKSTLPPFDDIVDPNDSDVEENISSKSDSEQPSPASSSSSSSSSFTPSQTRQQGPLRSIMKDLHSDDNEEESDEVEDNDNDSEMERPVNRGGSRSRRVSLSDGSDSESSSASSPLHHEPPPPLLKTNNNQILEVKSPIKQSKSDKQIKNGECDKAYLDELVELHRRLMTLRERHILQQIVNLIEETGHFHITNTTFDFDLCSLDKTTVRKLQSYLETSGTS
A1 inh = inhibitors of the anti-apoptotic protein A1, read as caspase activation; MEF A1-2A-BIM cells, Caspase-Glo 3/7 luminescence, 3 h; percent of clofoctol response, vehicle zero; caspase activation, % (concentration not given with the values); hit rate 0.066% among 330,000; AID 2462;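 active = over half of replicate activation scores above 10%, or exactly half above 10 with the replicate mean above 10; inconclusive = replicate mean below 10 yet half the replicates above 10; inactive = over half of replicates below 10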;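 note: wells of about 30 µL received 50 nL stock; many hits fall short of the cut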
T cruzi repl = T. cruzi replication inhibition. T. cruzi beta-gal in NIH3T3, luminescence, 90 h. inhibition, % (no concentration beside the values). hit rate 1.4% among 300,000;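 active = mean inhibition across valid replicates above about 55%, limit read from the data; inconclusive = mean below that limit but half or more replicates reach it; inactive = mean below it, under half of replicates reach it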;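 note: signal also drops with host cell toxicity which is not excluded here; 0% = plate median of DMSO wells and 100% = zero luminescence signal; higher percent means less beta-gal luminescence so fewer parasites; stock transfer was 50 nL into about 50 µL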
Calb FLC = affects C. albicans growth with fluconazole | AID 1979 | C. albicans CaCi-2 (fluconazole-resistant clinical isolate) + fluconazole, Alamar Blue growth, 48 h | growth inhibition, % (concentration not given with the values) | hit rate 0.57% among 300,000;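 active = most replicates above 75%; inconclusive = exactly half above 75%; inactive = most below 75%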;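 note: all wells also contain fluconazole at 8 µg/ml as a sub-toxic cotreatment; 0% = median of DMSO wells and 100% = median of geldanamycin control wells; wells of about 8 µL received 7.5 nL stock; the first replicate is given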
An asterisk follows results filed as active; ? = inconclusive; / = no result given.

Sequence of screens: LANA-H2A inh	RanGTP-Imp inh	Beta apoptosis	Vif TR-FRET	AF4-AF9 inh	A1 inh	T cruzi repl	Calb FLC
O=C(Cn1nc(-c2cccc(Cl)c2)ccc1=O)Nc1ccc(C(=O)NC2CC2)cc1
 : -0.9	0.6	-10	-5%	-1.4	-0.5	-3	8
Cc1c(/C=N/NC(=O)c2ccc(O)cc2)c2ccccn2c1C(=O)c1ccc(F)cc1
 : 4.5	0.9	6	-5%	/	0.3	20	-1
CCc1ccccc1NC(=O)CN(c1ccc(OC)cc1OC)S(=O)(=O)c1ccccc1
 : 3.6	?	/	/	1.4	0.1	8	-2
CCOC(=O)CNC(=S)N(Cc1cccs1)C1CCCCC1
 : -1.5	4.5	/	/	-0.9	0.0	-4	19
COCc1nc2ccccc2n1Cc1ccccc1
 : -3.4	2.2	-2	-1%	/	-0.6	-8	1
Cc1cc(C)cc(NC(=O)Nc2ccc(NC(=O)c3ccccc3O)cc2)c1
 : -2.9	2.3	-7	/	1.5	1.7	-9	2
NNc1nc(-c2ccccc2)c2ccccc2n1
 : 2.6	4.7	1	0%	-0.1	-0.3	-5	?
Cc1ccccc1C=Nc1ccccc1C(N)=O
 : 7.6	0.5	2	-6%	/	-0.5	-5	-21
Cc1c(C(=O)Oc2ccc(F)cc2)sc2ncn(Cc3cccc(F)c3)c(=O)c12
 : -0.9	-1.6	-1	-6%	-9.9	0.9	-9	-3
OCCN(/C=N/c1nc(-c2ccc(Br)cc2)cs1)CCO
 : -5.3	-1.6	-16	30%	3.6	-0.7	-12	-12
O=C1CC(SC(=Nc2ccccc2)Nc2ccccc2)C(=O)N1c1ccc(Cl)c(Cl)c1 (stereo not given)
 : -2.5	0.9	4	?	/	0.3	55*	-2
O=C(c1cccc([N+](=O)[O-])c1)N1CCN(S(=O)(=O)/C=C/c2ccccc2)CC1
 : -1.5	/	1	-10%	1.4	0.0	/	/
Cc1ccc(NC(=S)NC(=O)C2CCCCC2)c(Br)c1
 : -2.0	/	1	4%	0.2	-1.0	/	/
Cn1nnc(NC(=O)/C=C/c2ccco2)n1
 : 2.3	2.4	1	12%	1.2	-1.2	-14	4
O=C(NCc1ccccn1)c1ccc(/C=N/O)nc1
 : 1.8	-4.0	/	3%	/	-0.2	-12	1
Cc1ccc(C2CC(c3ccc(NS(C)(=O)=O)cc3)=NN2C(=O)c2ccco2)cc1 (stereo not given)
 : -0.7	8.1	12	6%	/	0.9	3	3
COc1ccc(C(=O)N(C)Cc2ccc(C)o2)cc1OC1CCN(C(C)C)CC1
 : 2.4	-0.8	1	-3%	1.7	0.0	-2	2
CCOc1ccccc1Oc1c(C)oc2c(CN3CCN(CCO)CC3)c(O)ccc2c1=O
 : 0.5	-3.2	-1	13%	/	0.3	0	47
CC1Oc2ccccc2OC1(O)c1ccccn1 (stereo not given)
 : -0.5	0.9	-3	5%	-8.1	0.4	-15	-12
COc1cc(CNCc2ccc(Br)cc2)cc(OC)c1
 : -1.5	-3.9	0	-1%	3.7	1.0	-2	-3

3 of the entries above in order of the Vif TR-FRET value, lowest first:
molecule	LANA-H2A inh	RanGTP-Imp inh	Vif TR-FRET	AF4-AF9 inh
COc1cc(CNCc2ccc(Br)cc2)cc(OC)c1	-1.5	-3.9	-1%	3.7
Cc1ccc(NC(=S)NC(=O)C2CCCCC2)c(Br)c1	-2.0	/	4%	0.2
Cn1nnc(NC(=O)/C=C/c2ccco2)n1	2.3	2.4	12%	1.2

Carrying on.
Sequence of screens: LANA-H2A inh	RanGTP-Imp inh	Beta apoptosis	Vif TR-FRET	AF4-AF9 inh	A1 inh	T cruzi repl	Calb FLC
Cc1ccccc1NC(=O)c1cccc(Cn2cc(Br)c([N+](=O)[O-])n2)c1
 : -0.7	0.5	5	-2%	/	0.8	48	-28
CNC(=O)N(O)C1N(/N=C/c2cc(Br)ccc2O)C(=S)SC1(C)C (stereo not given)
 : -1.3	2.8	2	-2%	6.8	0.6	-1	0
COc1ccc(NC(=O)c2cncc(Br)c2)cc1S(N)(=O)=O
 : 1.5	-1.2	-4	0%	-2.4	-1.1	-14	0
CCSc1ccc(NC(=O)c2cccnc2)cc1
 : -0.4	-3.1	104*	-3%	/	-2.6	10	/
O=C(OCC(=O)N1CCCc2ccccc21)c1cncc(Br)c1
 : -4.1	/	-3	8%	-0.6	0.3	-8	/
CCC/C(O)=C1\C(=O)CCCC1=NCCc1c(C)[nH]c2ccccc12
 : 1.0	-4.8	-2	-6%	4.7	0.1	-3	3
CC1CCN(C(=O)C2CCCN(S(C)(=O)=O)C2)CC1 (stereo not given)
 : 0.7	2.8	1	30%	2.1	0.9	-14	-10
CCOC(=O)C(CCSC)NC(=O)CN (stereo not given)
 : 1.0	-1.4	-8	2%	/	-0.5	-11	-13
CCN1CCCCC(=N/O)/C(=N/O)CCCC1
 : 12	8.2	-8	6%	0.3	0.7	6	5
O=C(Cn1cnc2ccccc21)N/N=C/c1ccccc1[N+](=O)[O-]
 : -0.6	-3.2	0	/	/	0.4	-12	6
CCCCN1CC[C@H]2C=CC[C@@H](C(=O)Nc3ccc(Cl)c(C(F)(F)F)c3)[C@H]2C1=O
 : 0.0	-2.8	4	/	-3.0	2.9	37	109*
COc1cc(/C=C2\CCc3ccccc3C2=O)cc(OC)c1OC
 : -2.9	0.9	1	-2%	/	-0.1	-5	67
C/C(CCc1ccco1)=N/NC(=O)CCC(=O)Nc1ccc(Br)cc1
 : 0.8	2.0	-2	/	1.8	-1.7	0	-7
CCOC(=O)NC(=O)/C(C#N)=C\Nc1sccc1C(=O)OC
 : -7.0	-13	-2	11%	-1.0	0.4	-19	2
O=C(O)c1cc(-n2cccc2)ccc1N1CCOCC1
 : 0.8	-1.1	/	/	-1.9	0.8	-7	-3
O=C(Nc1cccc2ccccc12)OCc1cncs1
 : 2.3	0.1	-2	-5%	-2.2	-0.6	9	-8
Cc1ncsc1CCOC(=O)c1ccc(N2CCOCC2)c([N+](=O)[O-])c1
 : -0.7	-5.8	-5	-3%	-0.9	-1.6	-9	33
O=C(O)CCC(=O)NNC(=O)COc1ccc2ccccc2c1Br
 : 3.7	-8.8	-1	-13%	-0.2	1.2	-11	-9
C=CCc1c(C)nc(N)[nH]c1=O
 : 0.5	1.4	-5	4%	-7.9	-1.1	-32	-1
CC(C)C(NC(=O)CN1C(=O)c2cccc3cccc1c23)C(C)C
 : -0.3	2.1	/	3%	1.1	0.7	14	-3
CC1CC(C)CN(CC(C)(C)NS(=O)(=O)c2ccc(Cl)cc2)C1 (stereo not given)
 : -1.1	4.4	-5	-2%	/	0.2	9	-6
COc1ccc(CNC(=O)C2CCN(C(=O)c3ccccc3)CC2)cc1
 : -1.7	0.0	0	-7%	-1.8	-0.1	-1	-1
CCCCOc1ccc(N(CC(=O)NCc2ccccc2)C(=O)c2csnn2)cc1
 : 1.2	?	8	/	-0.7	-0.1	1	-6
Cc1cc(C(=O)Nc2sc3c(c2C#N)CCCCC3)cs1
 : -4.4	-0.6	3	96µM*	8.0	-6.9	17	-11
Cc1ccc(COC(=O)c2nn(-c3ccccc3)nc2N)cc1
 : 2.3	-5.3	-4	-6%	-1.5	-0.9	1	1
O=C(N/C=C/c1ccc(Cl)cc1)NCc1ccc(Cl)cc1
 : -0.4	1.3	-6	27%	/	0.3	12	9
Cc1cc(C)cc(Oc2cc(NC(=O)c3cn(C)nc3C)cc([N+](=O)[O-])c2)c1
 : -3.4	-1.0	104*	18%	/	0.1	41	-19
O=[N+]([O-])c1ccc(NS(=O)(=O)c2cccc3cccnc23)cc1
 : -6.1	2.9	-1	/	5.6	-0.5	6	13
CN(C)CCN=Cc1c(O)n(Cc2ccccc2)c(=O)c2ccccc12
 : 8.4	1.7	6	-2%	9.9	0.4	29	-14
COc1ccc(C2N(c3cccc(Cl)c3)C(=O)C3CCCN32)cc1 (stereo not given)
 : 2.0	1.8	-2	0%	-1.3	-0.4	7	-4
O=C(CN1C(=O)NC(c2ccccc2)(c2ccccc2)C1=O)c1c[nH]c2ccccc12
 : -2.8	3.2	5	-7%	/	-0.3	15	3
CCCn1c(=N)c(C(=O)NC2CCCC2)cc2c(=O)n3cccc(C)c3nc21
 : 5.5	198*	12	-5%	/	-0.3	/	2
CCCCSc1nc2sc3c(c2c(=O)[nH]1)CCC3
 : 7.1	1.0	-4	70%	/	-0.2	-19	29
COc1cccc(CNC(=O)C(=O)N2CCC3(CC2)OCCN3S(=O)(=O)c2ccc(C)cc2)c1
 : 3.0	0.4	2	-2%	0.1	0.9	4	2
Cc1ccc(C2=NS(=O)(=O)N(C)C(C(=O)NCc3ccccn3)=C2)cc1
 : 6.3	2.9	-2	/	0.4	0.3	-20	1
Cn1c(C(=O)OC(C(=O)NCc2ccco2)c2ccncc2)cc2sccc21 (stereo not given)
 : 1.1	-0.6	/	7%	/	0.4	2	35
C=CCc1c(C)nc(-c2ccccc2)nc1N/N=C/c1ccccc1
 : -1.0	0.9	3	-1%	16	0.2	16	-1
Cc1nn(C2CCS(=O)(=O)C2)c(Cl)c1/C=C/C(=O)OCC(=O)Nc1ccccc1OC(F)F (stereo not given)
 : 0.2	4.5	-5	?	/	-0.2	10	26
O=C(C1CC(=O)N(c2ccc(F)cc2)C1)N1CCCCC1 (stereo not given)
 : 1.4	0.9	-16	/	-11	0.2	-4	16
COc1cc([N+](=O)[O-])ccc1NC(=O)CSc1ccccn1
 : -5.8	1.3	-6	2%	/	-0.2	7	18
CCOC(=O)c1cc2cc(OC)ccc2[nH]1
 : -1.1	0.5	-2	4%	/	-2.6	5	1
Cc1ccc(-c2n[nH]c(=S)n2/N=C/C=C\c2ccccc2[N+](=O)[O-])cc1
 : -0.2	3.4	4	8%	/	-0.3	-14	2
CCOC(=O)C1=NN(C(C)=O)C2(CC(=O)N(c3cccc(C)c3)C2=O)C1 (stereo not given)
 : -2.0	-2.1	3	/	-1.6	-0.4	-14	0
C=CCOC(=O)C1=C(C)NC(SCC(=O)Nc2nccs2)=C(C#N)C1c1ccc(Cl)cc1 (stereo not given)
 : -1.6	2.7	6	-27%	/	0.6	51	3
COc1cccc(Cn2nnc(C(=O)NCc3ccc(F)cc3)c2N)c1
 : 2.2	-2.0	20	-1%	-11	2.7	-8	7
Cc1ccc(C)c(NS(=O)(=O)c2ccc(OCC(=O)N3CCOCC3)cc2)c1
 : 2.8	3.7	-5	11%	/	-0.2	3	-4
Cc1ccc(C(=O)O)cc1NC(=O)C1=CSCCO1
 : 8.5	-4.2	-3	/	1.7	0.6	-21	5
COc1cccc(C(=O)N2CCC(C(=O)NCc3ccc(C)cc3)CC2)c1
 : 8.8	3.7	/	/	-1.4	-0.2	-2	3
CCOc1ccccc1N(C(=O)c1ccco1)C(C(=O)NC1CCCC1)c1cccs1 (stereo not given)
 : -0.2	0.0	-1	/	-5.8	-0.1	20	28
Cc1ccc(-n2nnnc2C(Cl)(Cl)c2nnnn2-c2ccc(C)cc2)cc1
 : 0.6	-0.6	0	6%	10	3.0	63*	103*
